# Assay outcomes (PubChem)
# FGF22 binding: binders of human FGF22 protein, primary screen, FGF22 synaptogenesis inhibitor project, biophysical, thermal shift, single point | calls only at 9.99 µM | recombinant FGF22 thermal shift, SYPRO orange fluorescence; percent of sucrose octasulfate shift, DMSO zero | 340,000 compounds, 1.5% hits;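 active = melting point raised past a set limit in the mean and every replicate; three in four hits are not shown here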
# Target sequence (Q9HCT0 whole entry, looked up): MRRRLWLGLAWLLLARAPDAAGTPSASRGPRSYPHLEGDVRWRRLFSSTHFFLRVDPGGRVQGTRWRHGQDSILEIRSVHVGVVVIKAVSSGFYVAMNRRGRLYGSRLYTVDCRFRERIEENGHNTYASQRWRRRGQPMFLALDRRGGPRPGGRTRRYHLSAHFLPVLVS
# rRNA inh HTS: reduced GFP signal of wild-type E. coli, primary screen, bacterial rRNA inhibitor project, GFP/RFP fluorescence, OD600, single point; E. coli WT GFP vs humanized-ribosome RFP mutants, 24 h; stronger effect = lower value; DMSO median 0, no signal -100; GFP signal change (wild-type ribosome), % (no concentration beside the values); 350,000 compounds, 1.6% hits;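 active = significant combined selectivity score with lowered wild-type GFP, culture density cut under 30%, mutant RFP and density less affected; inactive = any of these conditions unmet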; also: one replicate is shown; some compounds called inactive have numbers as strong as hits
# MLL AF4-AF9 inh: inhibitors of AF4 peptide binding to AF9, primary screen, biochemical, AlphaScreen, biotin-AF4 peptide, FLAG-AF9, single point; AID 651704, 2012; 350,000 compounds, 0.47% hits; inhibition, % at 10 µM; Protein AF-9 (Homo sapiens), P42568;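 active = every replicate reaching a set inhibition limit, whatever the replicate mean, cut at about 25% in these data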;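 also: 0% = plate neutral control median and 100% = total signal loss; the record names both 10 and 1 µM as test concentration; the first replicate is given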
# Target sequence (P42568 whole entry, looked up): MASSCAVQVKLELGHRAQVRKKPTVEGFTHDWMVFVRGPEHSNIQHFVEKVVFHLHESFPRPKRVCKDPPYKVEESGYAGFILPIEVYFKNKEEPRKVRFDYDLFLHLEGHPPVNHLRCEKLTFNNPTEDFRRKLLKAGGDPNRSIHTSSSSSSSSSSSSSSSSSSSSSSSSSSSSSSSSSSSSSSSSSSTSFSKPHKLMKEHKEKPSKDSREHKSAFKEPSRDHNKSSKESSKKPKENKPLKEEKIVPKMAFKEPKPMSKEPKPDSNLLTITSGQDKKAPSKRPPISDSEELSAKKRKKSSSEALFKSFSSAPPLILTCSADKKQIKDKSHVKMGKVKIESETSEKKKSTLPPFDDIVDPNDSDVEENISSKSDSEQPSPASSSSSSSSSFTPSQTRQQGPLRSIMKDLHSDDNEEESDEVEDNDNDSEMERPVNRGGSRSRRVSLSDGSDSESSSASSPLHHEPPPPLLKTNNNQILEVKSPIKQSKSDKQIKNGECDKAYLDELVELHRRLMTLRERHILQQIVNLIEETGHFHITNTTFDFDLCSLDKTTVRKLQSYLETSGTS
# rRNA inh HTS OD600: further read-out of rRNA inh HTS, marked with its call; OD600 change, %; measured here: OD600 growth;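 optical density of the mix in the first replicate; 0 = DMSO median and -100 = no signal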
# rRNA inh HTS RFP: also measured in rRNA inh HTS; calls as there; RFP signal change, %; measured here: RFP humanized mutant strains;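 first replicate; 0 = DMSO median and -100 = no signal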
# * hit, by the source's call; i = inactive; . = not tested or not shown; + = active, no number; & = joins results of further samples. These rows are one share of the data; rates above refer to the full screens.
FGF22 binding	rRNA inh HTS	rRNA inh HTS OD600	rRNA inh HTS RFP	MLL AF4-AF9 inh	mol
i	-1.6	3.1	-0.8	-1.4	C[C@H]1CN([C@@H](C)CO)C(=O)c2cc(NC(=O)Cc3cn(C)c4ccccc34)ccc2O[C@@H]1CN(C)S(C)(=O)=O
i	-0.9	8.0	-0.4	5.9	CCC(=O)N(C)C[C@H]1Oc2cc(-c3cccnc3)ccc2S(=O)(=O)N([C@@H](C)CO)C[C@@H]1C
i	2.7	6.5	-1.0	-4.9	CCNC(=O)C[C@H]1C=C[C@H](NC(=O)NC2CCCCC2)[C@H](CO)O1
.	10.2	23.0	-3.0	0.3	C=CCN1C=C(C(=O)OCC)C(=O)CC1
i	-2.4	13.3	-0.9	-5.4	C[C@@H]1CN([C@H](C)CO)C(=O)c2cc(C#Cc3ccncc3)cnc2O[C@H]1CN(C)C(=O)c1ccccc1F
i	-2.6	-2.9	0.4	-0.5	CCCC#Cc1cnc2c(c1)C(=O)N([C@H](C)CO)C[C@H](C)[C@H](CN(C)C(=O)Nc1ccccc1F)O2
i	-0.3	-4.2	0.7	0.7	C[C@@H]1CN([C@H](C)CO)C(=O)Cc2cc(NC(=O)C3CCCCC3)ccc2O[C@@H]1CN(C)CC1CCCCC1
i	2.7	5.2	-2.6	-0.9	C[C@H](NC(=O)C[C@@H]1C[C@H]2c3cc(NS(C)(=O)=O)ccc3O[C@H]2[C@@H](CO)O1)c1ccccc1
i	1.5	16.2	-1.4	-2.1	COCC(=O)N1[C@H](CO)[C@@H](c2ccccc2)[C@H]1CN(C)C(=O)c1cccnc1
i	-5.0	-1.2	-1.8	0.6	COCCN(C(=O)COC(=O)c1ccc2ccccc2c1)c1c(N)n(Cc2ccccc2)c(=O)[nH]c1=O
i	0.1	2.1	0.4	-1.0	CO[C@@H]1CN(C)C(=O)c2ccc(NC(=O)C3CC3)cc2OC[C@H](C)N(C(=O)NC(C)C)C[C@H]1C
i	5.2	15.0	-0.9	-2.4	C[C@H](CO)N1C[C@H](C)[C@H](CN(C)Cc2cccc(F)c2)Oc2ncc(C#C[C@@H](C)O)cc2C1=O
i	-16.2	-45.8	10.7	4.4	Cc1ccc(S(=O)(=O)N2C[C@H](O)COC[C@@H]3O[C@H](CC(=O)NCc4ccc(Cl)c(Cl)c4)CC[C@H]32)cc1
i	10.5	7.2	0.7	2.2	O=C(/C=C/c1cccs1)c1ccco1
i	0.2	1.8	3.5	-2.4	C[C@@H]1CCCCO[C@H](CN(C)S(=O)(=O)c2cccs2)[C@H](C)CN([C@@H](C)CO)C(=O)c2cc(NC(=O)Nc3ccc(F)cc3)ccc2O1
i	-0.8	-6.7	-0.2	0.2	CCCNC(=O)N1[C@H](C(=O)NC2CCC2)[C@@H](CO)[C@@H]2Cn3c(ccc(-c4ccccc4OC)c3=O)[C@@H]21
i	-1.6	-8.1	-0.8	-2.2	CO[C@H]1CN(C)C(=O)c2ccc(NC(=O)C3CC3)cc2OC[C@@H](C)N(Cc2cccnc2)C[C@H]1C
i	1.7	5.1	-1.5	0.5	C[C@H](O)C#Cc1ccc2c(c1)O[C@H](CN(C)C(=O)c1ccncc1)[C@H](C)CN([C@H](C)CO)S2(=O)=O
i	4.1	0.5	-1.7	-1.4	Cc1ccc(-c2nc3ccccc3n2C(C(=O)NC(C)(C)C)C2CC2)cc1 (centres undefined)
i	-1.5	0.7	-1.3	-0.4	C[C@@H]1CCCCO[C@H](CN(C)C(=O)Nc2ccccc2)[C@@H](C)CN([C@H](C)CO)C(=O)c2cc(NC(=O)Nc3ccc(F)cc3)ccc2O1

# The final four compounds of the section above lead into the next:
FGF22 binding	rRNA inh HTS	rRNA inh HTS OD600	rRNA inh HTS RFP	MLL AF4-AF9 inh	mol
i	-1.6	-8.1	-0.8	-2.2	CO[C@H]1CN(C)C(=O)c2ccc(NC(=O)C3CC3)cc2OC[C@@H](C)N(Cc2cccnc2)C[C@H]1C
i	1.7	5.1	-1.5	0.5	C[C@H](O)C#Cc1ccc2c(c1)O[C@H](CN(C)C(=O)c1ccncc1)[C@H](C)CN([C@H](C)CO)S2(=O)=O
i	4.1	0.5	-1.7	-1.4	Cc1ccc(-c2nc3ccccc3n2C(C(=O)NC(C)(C)C)C2CC2)cc1 (centres undefined)
i	-1.5	0.7	-1.3	-0.4	C[C@@H]1CCCCO[C@H](CN(C)C(=O)Nc2ccccc2)[C@@H](C)CN([C@H](C)CO)C(=O)c2cc(NC(=O)Nc3ccc(F)cc3)ccc2O1
i	-1.8	-1.9	1.5	2.3	O=C1CN(Cc2ccccc2)C[C@H]2[C@@H](c3ccc(Br)cc3)[C@H](CO)N12
i	3.1	6.2	-3.7	0.9	C[C@@H]1CN([C@@H](C)CO)S(=O)(=O)c2ccc(-c3cccnc3)cc2O[C@@H]1CN(C)C(=O)CC1CC1
i	2.5	-1.4	-3.2	-1.3	CCS(=O)(=O)Nc1ccc2c(c1)C(=O)N(C)[C@@H]1CC[C@H](CC(=O)N3CCOCC3)O[C@H]1CO2
i	-7.2	-47.9	26.4	0.3	Cc1cccc(C(=O)NC2CCN(CC(=O)Nc3cccc(Cl)c3)CC2)c1
i	-1.9	-2.1	-0.2	-1.7	CNC(=O)C[C@@H]1CC[C@H]2[C@H](COc3ccc(NC(=O)c4cc(F)cc(F)c4)cc3C(=O)N2C)O1
i	-0.2	2.1	0.1	-2.0	C[C@H](CO)N1C[C@H](C)[C@@H](CN(C)Cc2ccccc2)Oc2ccc(NC(=O)CCC(F)(F)F)cc2CC1=O
i	0.0	-6.9	0.1	5.9	C[C@@H]1CN([C@H](C)CO)C(=O)c2cccc(NC(=O)CCCCCC(=O)Nc3ccccc3N)c2O[C@@H]1CN(C)C(=O)NC1CCCCC1
+	0.8	5.3	-3.8	-0.8	C[C@@H]1CN([C@@H](C)CO)C(=O)c2cccc(NS(=O)(=O)c3cn(C)cn3)c2O[C@@H]1CN(C)S(=O)(=O)c1ccc(Cl)cc1
i	-13.8	-40.5	34.2	-15.1	C[C@@H]1CCCCO[C@@H](CN(C)CC2CCCCC2)[C@H](C)CN([C@H](C)CO)C(=O)c2cc(NC(=O)Nc3ccc4c(c3)OCO4)ccc2O1
i	-2.4	-20.6	-0.6	4.7	C/C=C/c1ccc2c(c1)O[C@@H](CN(C)C(=O)C1CCCCC1)[C@@H](C)CN([C@H](C)CO)S2(=O)=O
i	-2.2	-3.6	3.8	-1.3	C[C@H]1CCCCO[C@H](CN(C)Cc2ccc(C(F)(F)F)cc2)[C@@H](C)CN([C@@H](C)CO)C(=O)c2cc(NC(=O)c3ccccc3)ccc2O1
i	-3.8	-6.0	-0.6	1.0	O=C(C[C@H]1C[C@@H]2c3cc(NC(=O)NC4CCCCC4)ccc3O[C@@H]2[C@@H](CO)O1)NCc1ccccc1
i	-6.3	-22.5	-4.1	-0.5	CCOC(=O)C1=CCN(S(=O)(=O)c2ccc(Br)cc2)C1c1cccc(Br)c1 (centres undefined)
i	3.8	6.2	-0.6	0.8	C[C@@H]1CCCCO[C@H](CN(C)S(=O)(=O)c2ccc(Cl)cc2)[C@H](C)CN([C@@H](C)CO)C(=O)c2cc(NC(=O)Nc3ccc4c(c3)OCO4)ccc2O1
i	-3.9	3.5	-2.0	10.0	CCC(=O)N1CC2(CN(C(=O)Nc3ccc(F)cc3)C2)c2c([nH]c3cc(OC)ccc23)[C@H]1CO
i	-0.9	-0.7	-0.5	0.2	C[C@@H]1CCCCO[C@H](CN(C)C(=O)C2CCCCC2)[C@H](C)CN([C@H](C)CO)C(=O)c2cc(NS(=O)(=O)c3cn(C)cn3)ccc2O1
i	-3.1	4.3	-2.4	-0.1	O=C(C[C@H]1C[C@@H]2c3cc(NC(=O)Nc4ccccc4F)ccc3O[C@@H]2[C@H](CO)O1)NCC(F)(F)F
i	4.4	4.7	-1.9	-2.4	C[C@@H]1CN([C@H](C)CO)C(=O)Cc2cc(NC(=O)c3ccncc3)ccc2O[C@@H]1CN(C)S(=O)(=O)c1ccccc1
i	-41.8	-74.7	-1.9	-3.8	CC1(C(=O)NCC2CCCCC2)CCN1C(=O)Cc1ccc(-c2ccccc2)cc1 (centres undefined)
i	-2.1	-0.1	-0.6	1.4	O=C(COc1ccc(S(=O)(=O)N2CCOCC2)cc1Cl)NCc1ccc2c(c1)OCO2
i	-5.5	0.4	-6.6	-2.7	C[C@@H]1CN([C@@H](C)CO)C(=O)c2cc(NC(=O)Nc3ccc(C(F)(F)F)cc3)ccc2O[C@@H](C)CCCCO[C@H]1CN(C)C(=O)Cc1ccccc1
i	-57.8	-71.0	-6.5	5.2	COc1cccc(S(=O)(=O)N2CCCCN3[C@H](CO)[C@H](c4ccc(C#CC5CC5)cc4)[C@H]3C2)c1
i	1.3	12.8	0.1	-1.2	COc1ccccc1NC(=O)N[C@@H]1CC[C@@H](CCNS(=O)(=O)c2ccc(Cl)cc2)O[C@H]1CO
i	4.3	0.0	-2.7	4.6	C[C@H]1CN([C@@H](C)CO)C(=O)c2cc(C#CC3(O)CCCC3)cnc2O[C@H]1CN(C)C
i	3.1	6.2	0.4	-1.9	C[C@H](CO)N1C[C@H](C)[C@@H](CN(C)C(=O)Nc2ccc3c(c2)OCO3)Oc2ncc(-c3cncnc3)cc2C1=O
i	-5.6	-3.5	-0.7	-1.0	Cc1ccccc1-c1ccc([C@H]2[C@@H](CO)N3CCCCN(S(=O)(=O)c4cn(C)cn4)C[C@@H]23)cc1
i	10.8	19.9	-0.7	0.4	CCNC(=O)C1CCCN(C(=O)c2ccc(C(=O)OC)cc2)CC1 (centres undefined)
i	-0.2	-1.5	-1.9	-1.2	COCCNC(=O)C[C@H]1CC[C@@H]2[C@@H](COc3ccc(NC(=O)c4cnccn4)cc3C(=O)N2C)O1
i	3.5	0.9	-2.1	-0.9	CN(C)C(=O)[C@@H]1[C@@H](CO)[C@@H]2Cn3c(cccc3=O)[C@H]1N2C(=O)c1ccccc1
i	-1.7	-5.3	-2.5	0.1	C[C@H]1CN([C@@H](C)CO)C(=O)CCCn2cc(nn2)CO[C@H]1CN(C)Cc1ccccc1
i	1.2	-0.2	0.1	0.0	N#C[C@H]1[C@H](c2ccc(C#Cc3ccccc3F)cc2)[C@@H](CO)N1C(=O)C1CCC1
i	-5.4&1.7	-5.8&-10.0	-2.4&-0.6	0.6&-1.5	C[C@H](CO)N1C[C@H](C)[C@@H](CN(C)C(=O)c2ccc(F)cc2)Oc2cc(Br)ccc2S1(=O)=O
i	1.0	5.5	-0.1	-2.3	C[C@H]1CN([C@@H](C)CO)C(=O)Cc2cc(NS(C)(=O)=O)ccc2O[C@H]1CN(C)C(=O)Nc1ccc(C(F)(F)F)cc1
i	1.3	1.2	-1.9	-1.7	CCC(=O)Nc1ccc2c(c1)OC[C@H](C)N(Cc1ccccc1C(=O)O)C[C@H](C)[C@@H](OC)CN(C)C2=O
i	1.1	2.9	-2.5	-1.3	C[C@H]1CN([C@@H](C)CO)C(=O)c2cccc(NC(=O)c3ccc(-c4nccs4)cc3)c2O[C@H]1CN(C)Cc1ccc(C(=O)O)cc1
i	1.7	-1.5	-2.7	6.2	C[C@@H]1CN([C@H](C)CO)S(=O)(=O)c2ccc(-c3ccncc3)cc2O[C@H]1CN(C)Cc1cncnc1
i	-4.6	-10.8	2.4	-6.1	C[C@H]1CN([C@@H](C)CO)C(=O)c2cc(/C=C/c3ccccc3)cnc2O[C@@H]1CN(C)C(=O)NC1CCCCC1
i	-1.4	-17.5	4.9	-2.2	C[C@H]1CN([C@@H](C)CO)C(=O)c2cc(NS(=O)(=O)c3ccc(Cl)cc3)ccc2O[C@H]1CN(C)S(=O)(=O)c1ccc(Cl)cc1
i	-2.2	-2.2	-2.1	2.1	COc1ccc2c3c(n(C)c2c1)[C@@H](CO)N(S(C)(=O)=O)CC31CN(C(=O)c2ccccn2)C1
i	-6.0	-10.3	7.6	-0.4	CCOC(=O)N(C)c1c(CC)nc2c(OCc3ccccc3)cccn12
i	-0.5	6.1	-4.7	-1.3	CO[C@@H](CN(C)C(=O)c1ccc2c(c1)OCO2)[C@@H](C)CN([C@H](C)CO)S(=O)(=O)c1ccc(C)cc1
i	-57.5	-69.5	-14.1	-1.7	C[C@@H]1CN([C@H](C)CO)C(=O)Cc2cc(NS(=O)(=O)c3ccc(Cl)cc3)ccc2O[C@H]1CN(C)Cc1ccccc1
i	3.6	6.0	0.6	-7.1	O=C(O)CC1CC(O)CCC1=O (centres undefined)
i	-2.1	1.5	-0.5	-2.0	C[C@@H]1CN([C@H](C)CO)C(=O)c2cc(C#C[C@@H](C)O)cnc2O[C@@H]1CN(C)Cc1cccc(F)c1
i	-0.7	-10.0	0.7	11.5	C[C@H](CO)N1C[C@H](C)[C@@H](CN(C)C(=O)c2ccncc2)Oc2cc(/C=C/c3ccccc3)ccc2S1(=O)=O
i	2.0	-17.7	-0.1	6.2	C[C@H](CO)N1C[C@H](C)[C@@H](CN(C)Cc2ccccc2)Oc2c(NC(=O)Nc3ccc4c(c3)OCO4)cccc2C1=O
